Screens: PubChem BioAssay, National Center for Advancing Translational Sciences (NCATS)
HTT prom inh: inhibitors of huntingtin promoter activity. HEK293 HTT promoter firefly luciferase reporter (activity 0% = vehicle and -100% = no light), 24 h. Potency, µM (series often up to 57.5 µM), inactives show at the highest dose activity change, negative = inhibition, usual class: inhibitors. hit rate 0.93% among 48,000. AID 1508623; active = well fitted inhibition curve with a large enough effect; inconclusive = small, poorly fitted or top-dose-only effect; inactive = no such curve, though single readings can be large or run the other way; note: nearly all actives have a fitted effect of over 50% in size
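HEK293 cells carrying firefly luciferase reporters were seeded at 2,500 per well in Opti-MEM and cultured for 24 h. They were then treated with compounds at up to 57.5 uM final for 24 h at 37 degrees C before Dual-Glo luminescence readout.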
PMP22 txn: PMP22 gene transcription modulation. S16 Pmp22-F2sN Schwann cells (luciferase reporters placed in the Pmp22 gene), FLuc/NLuc coincidence luminescence, 24 h. Potency, µM (titrated, usually from 57.5 µM), for the others: at the top dose activity change, negative = inhibition, actives largely listed as inhibitors. hit rate 2% among 43,000. AID 1508649; active = clear falling dose curves in both reporters; inconclusive = both reporters move, but less clearly or upward; inactive = either reporter flat; the % is the NLuc reporter signal; note: % is set by controls: 0 for no effect and ±100 for the full control effect; some results filed as inactive show a strong effect at the top dose
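S16(c9) Schwann cells with FLuc/NLuc coincidence reporter in the Pmp22 3' UTR; compounds pin-transferred, 24 h at 37C. Dual-luciferase read: FLuc first, then NLuc after Stop&Glo, each 10 min at room temperature.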
Numbers without * were called inactive; ? = inconclusive; nt = no result given; & = joins results of further samples; [ ] = remark or other dose. Potency is the fitted concentration of half-maximal effect.

SMILES	HTT prom inh	PMP22 txn
CCN(C(=O)c1c(C)oc2ncn(CC(C)C)c(=O)c12)c1cccc(Cl)c1	-6%	?
CCOc1ccccc1NC(=O)CCCc1nc(-c2ccccc2Cl)no1	-11%	-17%
CCOc1ccc(-c2nonc2NC(=O)COc2ccc(C)c(C)c2)cc1OCC	-5%	-3%
Cn1nnnc1SCCCNCc1ccccc1OCc1ccc(Cl)cc1	-38%	?
Cc1ccc(-c2ccc(=O)n(CC(=O)NCCc3ccccc3)n2)cc1	-1%	4%
CCOc1ccc(Cl)cc1CNCCCSc1nnnn1C	-2%	-13%
COc1ccc(-n2nnc(C(=O)Nc3ccccc3F)c2N)cc1	31%[activator]	-31%
COc1ccc(Nc2cc(C(=O)NCc3ccccc3)c3ccccc3n2)cc1OC	0%	-2%
CC(=O)N(CC(O)CN(C(C)=O)c1c(I)c(C(=O)NCC(O)CO)c(I)c(C(=O)NCC(O)CO)c1I)c1c(I)c(C(=O)NCC(O)CO)c(I)c(C(=O)NCC(O)CO)c1I (centres undefined)	3%	nt
COc1ccc2c(CNCc3cccs3)c(C(=O)O)n(Cc3ccccc3)c2c1	-12%	-15%
Cc1nc(N2CCCC2)ncc1C(=O)NCc1ccccc1Cl	0%	0%
COc1ccc(-c2nn(-c3ccc(C)cc3)c3c2cnc2ccc(C)cc23)cc1OC	-7%	15%
CN(C(=O)c1ccc2c(c1)N(Cc1ccccc1F)C(=O)c1ccccc1S2)C1CCCCC1	2%	-12%
Cc1ccc(-n2c(=O)c3ccc(C(=O)NCc4ccccc4Cl)cc3n(CC(N)=O)c2=O)cc1	?	?
CCOc1ccc(CC(=O)Nc2c(C(=O)Nc3ccc(OC)cc3OC)oc3ccccc23)cc1	-11%	-73%
N#Cc1c(-n2ncnc2-c2cccc(Br)c2)sc2c1CCCCC2	?	3%
COc1ccc(NC(=O)CCNS(=O)(=O)c2ccc3c(c2)CCN3C(=O)C2CC2)cc1Cl	?	14µM*
Cc1cccc(NC(=O)c2cc3c(C)nn(-c4ccccc4)c3s2)c1	?	-38%
O=C(CN1Cc2ccccc2C1=O)Nc1cc(F)ccc1F	-10%	0%
COc1ccc(S(=O)(=O)c2cn(C)c3cc(N4CCCCC4)c(F)cc3c2=O)cc1	?	?
CC(=O)Nc1ccc(NC(=O)C(NS(=O)(=O)c2ccc(Br)s2)c2ccccc2)cc1 (centres undefined)	-4%	4%
COc1ccc(N2CCN(C(=O)c3cccn3-c3nnc(N4CCCC4)s3)CC2)cc1	-4%	-1%
Cc1cc(C)cc(NC(=O)COCc2cc(-c3ccc4c(c3)OCO4)on2)c1	-4%	13%
O=C(NCC(c1ccc(Cl)cc1)N1CCCCC1)c1ccccc1F (centres undefined)	-16%	-23%
NC[C@H]1O[C@H](O[C@H]2[C@@H](O)[C@@H](O[C@H]3O[C@H](CO)[C@@H](O)[C@H](N)[C@@H]3O)[C@H](N)C[C@@H]2N)[C@H](N)C[C@H]1O	3%	nt

Compound profiles, from the list above. Order of screens: HTT prom inh, PMP22 txn
`COc1ccc(S(=O)(=O)c2cn(C)c3cc(N4CCCCC4)c(F)cc3c2=O)cc1` is entered as ?, ?
`COc1ccc(-n2nnc(C(=O)Nc3ccccc3F)c2N)cc1` is entered as 31%[activator], -31%

(more compounds)
SMILES	HTT prom inh	PMP22 txn
CC(=O)N1CCCc2cc(S(=O)(=O)N3CCCC(C(=O)NCc4ccc(C)cc4)C3)ccc21 (centres undefined)	?	?
COc1ccc2c(c1)NC(c1ccc(F)cc1)=NC(c1ccc(F)cc1)=N2	24%	-17%
CCOC(=O)C1CCCN(C(=O)Cn2ncc3c(C)n(Cc4ccc(Cl)cc4)c(C)c3c2=O)C1 (centres undefined)	?	-34%
COc1ccc(CCNC(=O)CCCCn2c(=O)c3ccccc3n(Cc3ccccc3)c2=O)cc1OC	-12%	?
Cc1ccc(C)c(Cn2c(=O)n(-c3ccc(Cl)cc3)c(=O)c3c(C)c(C)sc32)c1	1%	5%
COc1ccc(NC(=O)c2cn3c4c(ccc(Cl)c4c2=O)OC(C)C3)cc1OC (centres undefined)	-11%	?
Fc1ccc(NCc2nnc3n2CCCCC3)cc1Cl	11%	-9%
O=c1oc2c3c(ccc2c2ccccc12)OCN(Cc1ccccc1Cl)C3	-8%	-49%
CCOc1ccccc1NC(=O)CSc1cc(=O)n(CC)c2ccccc12	?	?
Cc1ccc(CNC(=O)c2cc(S(=O)(=O)N3CCCCCC3)cn2C)cc1	-21%	-13%
O=S(=O)(NCCc1csc2nc(-c3ccccc3)nn12)c1ccc(Cl)s1	-20%	7%
CC(C)CC(=O)NC1(C(F)(F)F)C(=O)Nc2c1c(=O)[nH]c(=O)n2-c1ccccc1 (centres undefined)	4%	-11%
Cc1ccc(C)c(CN2C(=O)c3ccccc3S(=O)c3ccc(C(=O)NCCc4ccc(Cl)cc4)cc32)c1 (centres undefined)	?	-29%
Cc1ccc(-c2cc(C(=O)Nc3c(C(=O)c4ccc(C)c(F)c4)oc4ccccc34)no2)cc1	-6%	-10%
Cc1cccc(OCC(=O)Nc2ccccc2OCc2cc(=O)n3cc(C)ccc3n2)c1	-4%	-24%
CCCCNC(=O)c1ccc(-c2nc(CS(=O)(=O)c3ccc(C)cc3)c(C)o2)cc1	?	?
C[C@@H](O)[C@H]1C(=O)N2C(C(=O)O)=C(S[C@@H]3CN[C@H](C(=O)N(C)C)C3)[C@H](C)[C@H]12	13%&1%	nt
CCOC(=O)c1c(C)n(-c2ccccc2)c2ccc(OC(=O)COc3ccccc3)cc12	4%	-6%
Cn1c(SCc2ccc(F)cc2)nc2c([nH]c3ccccc32)c1=O	0%	-2%
Cc1cc(C)c2nc(NC(=O)c3ccc(S(=O)(=O)N4CCC(C)CC4)cc3)sc2c1	?	?
CC(C)N(Cc1ccccc1)C(=O)CCS(=O)(=O)c1cc2c(cc1Cl)NC(=O)CO2	-19%	-17%
CCN(CC)CCN	12%	nt
CCOC(=O)c1c(C)sc(-c2c(-c3ccc(OC)c(F)c3)[nH]c3c2c(=O)[nH]c(=O)n3C)c1O	-25%	?
Nc1ccc(S(=O)(=O)NC2(C(F)(F)F)NC(=O)N(c3cccc(Cl)c3)C2=O)cc1 (centres undefined)	1%	5%
CC1CCc2nc(NC(=O)COc3ccc(C(C)(C)C)cc3)sc2C1 (centres undefined)	-14%[11.5 µM]	22%
Later entries
SMILES	HTT prom inh	PMP22 txn
Cc1ccc(CNS(=O)(=O)c2ccc(N3CCCCS3(=O)=O)cc2)cc1	?	?
CCc1ccccc1S(=O)(=O)Cc1ccc(C(=O)NCCc2ccc(Cl)cc2)o1	?	?
COc1ccccc1C(=O)NCC1(N2CCN(C)CC2)CCCCC1	-13%	-26%
CCc1ccc2ncc3c(-c4ccc(F)cc4)nn(CC(=O)NCc4ccccc4)c3c2c1	3%	3%
CCOC(=O)c1cnc2ccc(C)cc2c1NCCc1ccc(OC)c(OC)c1	-10%	-20%
N#Cc1c(-c2ccccc2)cc(-c2ccccc2)nc1SCC(O)CS(=O)(=O)Cc1ccccc1 (centres undefined)	-33%	3%
COc1ccc(Cl)cc1NC(=O)c1nn(C)c2c1CS(=O)(=O)c1ccccc1-2	-1%	12%
Cc1c2cnn(-c3ccccc3)c(=O)c2c(C)n1CC(=O)NCc1ccc(Cl)cc1	-12%	-17%
CC(C)CC(=O)Nc1cccc(-c2cn3cccnc3n2)c1	78%[activator]	16%
CCCc1cc(N2CCN(c3cc(Cl)ccc3C)CC2)n2cnnc2n1	-30%	-22%
CCc1ccc(C2=CC(c3cccc(Br)c3)n3nnnc3N2)cc1 (centres undefined)	?	-28%
CCCn1c(=N)c(C(=O)NCC2CCCO2)cc2c(=O)n3cc(C)ccc3nc21 (centres undefined)	-1%	?
CCOC(=O)c1ccccc1NC(=O)CCOc1ccccc1	33%[activator]	-16%
COc1ccc(C(=O)Nc2cccc(C(=O)OCc3cc(=O)n4c5c(sc4n3)CCCC5)c2)cc1	-19%	-19%
Cc1c(Cl)cccc1-n1ncc(C(=O)N2CCOCC2)c1C1CCN(C(=O)OC(C)(C)C)CC1	-19%	1%
COc1ccc(S(=O)(=O)Nc2cc(-c3cn4ccccc4n3)ccc2C)cc1	-30%	-13%
COc1cc(C(=O)Nc2cccc(OCc3cc(=O)n4cc(C)sc4n3)c2)cc(OC)c1OC	1%	-3%
CCCCN(Cc1cc2ccccc2[nH]c1=O)C(=O)c1cccc(Cl)c1	?	20µM*
COC(=O)C(NC(=O)CCc1c(C)nc2cc(-c3cccc(F)c3)nn2c1C)C(C)C (centres undefined)	11µM*	-1%
CC1CCN(S(=O)(=O)c2cc3c4c(c2)CC(=O)N4CCC3)CC1	-22%	-8%
Cc1sc2c(c1C)c(=O)n(-c1ccc(Cl)cc1)c(=O)n2CC(=O)c1ccccc1	-5%	?
O=C(CCC(=O)c1ccc(F)cc1)Nc1ccc(Cl)cc1	-4%	-20%
CC1CCN(S(=O)(=O)c2ccc3c(c2)N(CC(=O)NC(C)C)C(=O)CS3)CC1	-10%	7%
CCOc1cc2c(cc1OCC)C(CC(=O)O)N(C(=O)Nc1ccccc1C(F)(F)F)CC2 (centres undefined)	-18%	5%
CCOC(=O)Cn1c(=O)n(C2CCCCC2)c2nc(-c3ccc(CC)cc3)nc(C(N)=O)c21	-5%	-7%
The results go on.
SMILES	HTT prom inh	PMP22 txn
COc1ccc(Nc2nnc(-c3cc4c(ccc5ccccc54)oc3=O)s2)cc1	17%	3%
CC(C)CN(CCCNC(=O)c1cc(=O)[nH]c2ccc(S(=O)(=O)N3CCCCCC3)cc12)CC(C)C	-3%	?
Cc1oc(-c2ccc(Cl)cc2)nc1CN1CCCC(C(=O)NCCc2ccc(Cl)cc2)C1 (centres undefined)	?	?
COc1ccc(OCc2nc3ccccc3n2Cc2ccc(C(C)(C)C)cc2)cc1	8%	?
CCn1c(=O)c(=O)n(CC)c2cc(N3CCCCC3)c(NC(=O)c3ccccc3OC)cc21	-1%	-10%
CCOCCCNC(=O)CCC(=O)NNc1nc2ccccc2c2nc(-c3ccccc3)nn12	-5%	-9%
Cn1c(=O)c(=O)n(C)c2cc(N3CCCC3)c(NC(=O)c3ccccc3Cl)cc21	0%	-35%
COc1ccc(-c2noc(-c3ccc(N4CCOCC4)c([N+](=O)[O-])c3)n2)cc1OC	-6%	4%
CCN(CC)S(=O)(=O)c1ccc2c(c1)N(CC(=O)N1CCN(c3cccc(C)c3C)CC1)C(=O)CO2	?	-19%
Cc1nn(-c2ccccc2)c2c1N(CCCC(=O)NC(C)c1ccccc1)C(=O)CS2 (centres undefined)	?	?
CCc1ccc(NC(=O)CSC2=Nc3ccccc3C3=NC(CCC(=O)NCc4ccccc4)C(=O)N23)cc1 (centres undefined)	?	-24%
COc1ccc(C)cc1NC(=O)C(=O)NCC1(c2ccccc2)CCCC1	?	-31%
COc1ccc(-c2nc(CN3CCC(C(=O)NCc4ccc(F)cc4)CC3)c(C)o2)cc1OC	-1%	2%
COCCNC(=O)c1ccc2c(=O)n(CCc3ccccc3)c(SCC(=O)CC(=O)OC)nc2c1	-16%	34%
CCOC(=O)c1cccc(NC(=O)c2cc3c(=O)n(Cc4ccccc4)ccc3nc2C)c1	?	?
O=C(NCc1ccccc1Cl)C(=O)NCC(c1cccs1)S(=O)(=O)c1ccccc1 (centres undefined)	?	?
CCCCn1cc(S(=O)(=O)c2ccc(Cl)cc2)c(=O)c2cc(F)c(N3CCCC(C)C3)cc21 (centres undefined)	1%	-30%
CCOc1ccc(CNC(=O)c2ccc(Sc3ccc(Cl)cc3)c(NC(C)=O)c2)cc1OC	?	12%
Cc1ccc(-n2c(=O)c3c(cnn3C)n(Cc3ccccc3F)c2=O)cc1	-27%	?
O=C(Nc1ccc(SC(F)F)cc1)c1cc(-c2cccs2)on1	26%	1%
COc1ccc(N2CC(NC(=O)c3cccs3)CC2=O)cc1 (centres undefined)	4%	30%
CN1CCC(OC(c2ccccc2)c2ccccc2)CC1	1%	nt
Cc1cccc(C)c1Nc1c(-c2ccccc2O)nc2ncccn12	?	-41%

In the list so far, eleven have a thiophene ring, fused or not:
SMILES	HTT prom inh	PMP22 txn
COc1ccc2c(CNCc3cccs3)c(C(=O)O)n(Cc3ccccc3)c2c1	-12%	-15%
N#Cc1c(-n2ncnc2-c2cccc(Br)c2)sc2c1CCCCC2	?	3%
Cc1cccc(NC(=O)c2cc3c(C)nn(-c4ccccc4)c3s2)c1	?	-38%
CC(=O)Nc1ccc(NC(=O)C(NS(=O)(=O)c2ccc(Br)s2)c2ccccc2)cc1 (centres undefined)	-4%	4%
Cc1ccc(C)c(Cn2c(=O)n(-c3ccc(Cl)cc3)c(=O)c3c(C)c(C)sc32)c1	1%	5%
O=S(=O)(NCCc1csc2nc(-c3ccccc3)nn12)c1ccc(Cl)s1	-20%	7%
CCOC(=O)c1c(C)sc(-c2c(-c3ccc(OC)c(F)c3)[nH]c3c2c(=O)[nH]c(=O)n3C)c1O	-25%	?
Cc1sc2c(c1C)c(=O)n(-c1ccc(Cl)cc1)c(=O)n2CC(=O)c1ccccc1	-5%	?
O=C(NCc1ccccc1Cl)C(=O)NCC(c1cccs1)S(=O)(=O)c1ccccc1 (centres undefined)	?	?
O=C(Nc1ccc(SC(F)F)cc1)c1cc(-c2cccs2)on1	26%	1%
COc1ccc(N2CC(NC(=O)c3cccs3)CC2=O)cc1 (centres undefined)	4%	30%
